Screening data from PubChem BioAssay.
Insulin prom inh = TRM-6 insulin promoter activity inhibition. TRM-6 cells (human fetal islet line), insulin promoter-eGFP reporter, imaging; reporter expression induced with tamoxifen. inhibition, % at 2 µM. actives 0.9% (n = 130,000). AID 1273;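 active = inhibition above the mean plus 3 SD, with well images judged a real hit on visual review, cut at about 60% in these data, passing the limit was not always enough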
RGS16-Gao = regulators of human RGS16-Galphao interaction; O15492+P09471; bead-based flow cytometry RGS16-Galphao binding, fluorescence; actives lie on both sides; binding response (% of control), % at 10 µM; actives 0.38% (n = 220,000);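 active = below 25% or above 175%, edge rows of some plates excepted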;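 also: Galphao activated by GDP with aluminum fluoride before binding; 100% = wells without compound and 0% = beads without RGS; some results beyond the cut were filed as inactive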
HSV replic up = increases HSV replication in cells; HSV replication augmentation in cells, fold increase; maximum fold increase; actives 0.005% (n = 220,000); AID 1956;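 active = peak rise of 1.5-fold or more in the series; tested in PC3 cells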;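 also: first round at 10 µM; read as green reporter fluorescence; hits show the peak of a series up to 25 µM; 1 = signal of infected wells without compound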
PKD1 inh = inhibitors of human PKD1 kinase; Q15139; PKD1 kinase fluorescence polarization assay; inhibition, %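 (about 10 µM by stock and volumes)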; actives 0.056% (n = 200,000);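 active = inhibition of 50% or more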;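 also: controls were vehicle for no effect and a reference inhibitor for full effect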
Target sequence (Q15139 whole entry, looked up): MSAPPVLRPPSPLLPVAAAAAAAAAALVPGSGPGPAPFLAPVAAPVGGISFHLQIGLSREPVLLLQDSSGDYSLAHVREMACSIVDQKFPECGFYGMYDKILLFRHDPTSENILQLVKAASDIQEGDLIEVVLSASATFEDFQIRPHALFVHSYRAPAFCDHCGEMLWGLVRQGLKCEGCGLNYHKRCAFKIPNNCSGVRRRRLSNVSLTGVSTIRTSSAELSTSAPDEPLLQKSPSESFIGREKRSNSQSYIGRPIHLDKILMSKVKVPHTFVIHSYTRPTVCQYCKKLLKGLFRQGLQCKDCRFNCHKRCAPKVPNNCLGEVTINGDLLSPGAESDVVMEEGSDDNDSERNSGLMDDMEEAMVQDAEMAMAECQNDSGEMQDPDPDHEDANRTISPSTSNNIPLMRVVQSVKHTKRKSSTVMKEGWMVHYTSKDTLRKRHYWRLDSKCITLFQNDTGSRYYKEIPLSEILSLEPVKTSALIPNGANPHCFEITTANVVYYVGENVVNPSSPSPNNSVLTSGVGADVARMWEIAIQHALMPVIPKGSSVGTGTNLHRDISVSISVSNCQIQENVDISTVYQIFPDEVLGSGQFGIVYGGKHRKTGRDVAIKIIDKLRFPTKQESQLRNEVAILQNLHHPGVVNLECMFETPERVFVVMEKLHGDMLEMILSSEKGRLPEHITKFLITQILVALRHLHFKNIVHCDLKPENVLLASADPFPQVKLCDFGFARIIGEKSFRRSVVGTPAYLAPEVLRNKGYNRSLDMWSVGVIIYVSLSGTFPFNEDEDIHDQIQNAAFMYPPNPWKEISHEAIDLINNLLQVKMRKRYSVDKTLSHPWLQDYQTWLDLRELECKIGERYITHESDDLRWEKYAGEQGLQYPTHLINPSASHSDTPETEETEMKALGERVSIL
GALR2 agonist = GALR2 (human) receptor agonism | activation, %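 (tested at 5 µM)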 | AID 803 | GALR2-expressing cells, agonist activation read-out | actives 0.48% (n = 140,000) | O43603;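 active = above mean plus 3 SD of all compounds, about 5% in these data, not always enough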;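 also: 0% = vehicle buffer wells and 100% = reference agonist at full effect; tested in CHO reporter cells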
Insulin prom inh cell count = also measured in Insulin prom inh; calls as there; normalized cell count, %; measured here: cell count, toxicity; reference of the scale not given here;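 cells exposed to compound for 48 h; stained nuclei by imaging scaled within each plate; lower means fewer cells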
HSV replic up primary fold = further read-out of HSV replic up, marked with its call; fold increase; compound at 10 µM; measured here: primary screen fold increase 10 uM; tested in PC3 cells;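 GFP signal in the first replicate; 1 = infected wells without compound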
* marks the source's active call; other numbers are inactive results; i = inactive; . = no result given. Compounds as they come; any-hit rate near 1.1%.

Every second line gives: HSV replic up, HSV replic up primary fold, Insulin prom inh cell count, PKD1 inh, Insulin prom inh, GALR2 agonist, RGS16-Gao
> CCOC(=O)/C(C#N)=C/c1cn(CCOc2ccccc2)c2ccccc12
  i, 0.91, 129, -14, -49, -0.2, 101
> Cc1ccccc1NC(=O)NC1(C(=O)NCCCN2CCOCC2)CCCCC1
  i, 0.98, 92, -6, -31, -1.9, 107
> CCN(CCn1cccn1)C(=O)CC1C(=O)NCCN1Cc1cccc(OC)c1OC (stereo unspecified)
  i, 0.96, 40, 0, -14, ., 119
> COc1c2occc2c(OC)c2c(=O)cc(C(F)(F)F)oc12
  i, 0.96, 64, 5, 7, -0.2, 109
> O=C1CSC(c2ccc(F)cc2)N1c1nnc(C23CC4CC(CC(C4)C2)C3)s1 (stereo unspecified)
  i, 0.96, 168, -1, -38, 0.2, 103
> CC(C)C(=O)N1CCN(c2ccc(NC(=O)c3ccc([N+](=O)[O-])o3)cc2)CC1
  i, 0.69, ., -5, ., ., 105
> COc1ccc(CCN2C(=O)c3cccc4cccc(c34)C2=O)cc1OC
  ., ., 143, 14, -8, -0.9, 101
> COc1ccccc1C(=O)NC(=S)N1CCCc2ccccc21
  i, 0.96, 125, -4, -17, -0.5, 91
> O=C(COc1ccccc1-c1ccccc1)N/N=C/c1ccccn1
  i, 0.72, ., 2, ., ., 107
> COC(CNC(=O)CNC(=S)N(CCCN1CCOCC1)Cc1cccs1)OC
  i, 0.83, ., -8, ., ., 99
> O=S(=O)(N/N=C/c1ccc(N2CCOCC2)cc1)c1ccccc1
  i, 0.99, ., -1, ., ., 102
> Cc1ccc(C2(c3noc(CN(C)Cc4cccnc4)n3)CCCC2)cc1
  i, 0.94, ., 7, ., ., 102
> CC(=O)Cc1nsc(NC(=O)C2Cc3ccccc3C(=O)O2)n1 (stereo unspecified)
  i, 0.96, ., 3, ., -1.1, 96
> COc1ccc(NC(=O)c2nc[nH]c2C(=O)N[C@H](C)c2ccccc2)cc1
  i, 0.87, ., ., ., ., 103
> O=C(O)C1C2C=CC(C2)C1C(=O)NCc1ccoc1 (stereo unspecified)
  ., ., 93, 5, 18, -1.2, 117
> Clc1ccc(-c2nnc(CSc3nnc(-c4cccs4)n3Cc3ccccc3)o2)cc1
  i, 0.85, 92, -14, -143, -1.3, 91
> COC(=O)COc1cccc2c(=O)n(CC(=O)N3CCCc4ccccc43)ccc12
  i, 0.81, ., -6, ., -2.5, 63
> Cc1ccc(-n2nc3c(=O)n(CC(=O)c4ccc(F)cc4)nc(C)c3c2C)cc1
  i, 0.93, 116, 0, 21, -0.5, 105
> COc1ccc(-n2c(=O)c3ccccc3n(Cc3ccc(F)cc3)c2=O)cc1OC
  i, 0.84, 117, -8, 36, -0.8, 103
> COc1ccc(N2CCN(C(=O)C3CC(O)CN3S(=O)(=O)c3ccc([N+](=O)[O-])cc3)CC2)cc1 (stereo unspecified)
  i, 0.84, 99, -11, 7, -2.5, 107
> CC(C)(C)c1ccc(C(=O)NNC(=S)NCC2CCCO2)cc1 (stereo unspecified)
  i, 0.99, 103, -6, 63, 0.2, 104
> COc1ccc(/C(O)=C2/C(=O)C(=O)N(c3ncccn3)C2c2ccc(C(C)(C)C)cc2)cc1 (stereo unspecified)
  i, 0.92, 86, -3, -21, ., 102
> Cc1ccc(-n2c(Cc3cccn3C)nnc2SCC(=O)NC2CCCCC2)cc1
  i, 0.9, ., 1, ., -1.4, 60
> Cc1cc(C)cc(NC(=S)N(Cc2cccc(Br)c2)CC2CCC(C(=O)O)CC2)c1 (stereo unspecified)
  i, 1.1, ., -5, ., ., 98
> O=C(NCc1ccco1)C(c1ccc(F)cc1)N(Cc1cccnc1)C(=O)Cn1nnc2ccccc21 (stereo unspecified)
  i, 1.1, ., -4, ., -1.2, 95
> CCOC(=O)c1c(NC(=O)Nc2ccc(F)cc2)sc2c1CCN(C)C2
  i, 1.1, ., ., ., ., 95
> CCOC(=O)c1c(C)[nH]c2ccc(O)cc12
  i, 0.77, 124, -3, 39, -0.3, 108
> CCCCNC(=O)C1CCCN1C(=O)Nc1ccccc1 (stereo unspecified)
  i, 1.1, 131, 1, -88, -0.5, 104
> CCN(CC)c1ccc(NC(=O)c2ccc(NC(=O)C3CCCO3)cc2)c(C)c1 (stereo unspecified)
  i, 0.81, ., -6, ., -0.9, 96
> Cc1c(C(=O)N/N=C/c2ccc(-c3ccccc3[N+](=O)[O-])o2)sc(N)c1C#N
  i, 0.81, ., 5, ., 16*, 98
> C=CCNC(=O)CC(=O)N/N=C/c1ccc(C(=O)OC)cc1
  i, 1.1, 83, -2, 15, -2.2, 98
> CCOC(=O)c1ccc(CNC(=O)C(Cc2c[nH]c3ccccc23)NC(C)=O)o1 (stereo unspecified)
  i, 1.2, 119, -2, 14, -2.6, 101
> Cc1ccc(OCC(=O)Nc2ccc(-c3nnc(-c4ccco4)o3)cc2)cc1
  i, 0.91, ., -11, ., -0.3, 101
> Fc1ccc(-c2nnc3ccc(N4CCc5ccccc5C4)nn23)cc1
  i, 0.42, ., 0, ., 0.8, 102
> NNC(=O)c1nnn(-c2nonc2N)c1CN1CCc2ccccc2C1
  i, 0.86, ., -3, ., ., 97
> Cc1cccc(NC(=S)N2CCCN(c3ncccc3[N+](=O)[O-])CC2)c1
  i, 1.2, ., ., ., ., 97
> CCOCCc1nnc(NC(=O)Cc2ccccc2)s1
  i, 1, 110, -4, 0, -2.0, 104
> CC(C)NS(=O)(=O)c1ccc(NC(=O)CCc2ccccc2)cc1
  i, 1.1, 101, -7, 14, -0.3, 109
> O=C(Nc1ccccc1N1CCOCC1)c1ccc2ccccc2n1
  i, 1.1, 65, 3, 16, 2.5, 99
> O=C(c1ccco1)N1CCN(S(=O)(=O)c2cccs2)CC1
  i, 0.87, ., -1, ., -2.5, 99
> COc1ccc(/C=N/NC(=O)c2ccc(Cl)c(S(N)(=O)=O)c2)cc1OCC(N)=O
  i, 1.1, ., ., ., ., 98
> O=C(CSc1nnc(CNC(=O)c2cccs2)o1)NC1CCCCC1
  i, 0.98, 86, -6, 10, 0.0, 98
> COc1ccc(-n2c(SCC(=O)Nc3ccc([N+](=O)[O-])cc3OC)nc3ccccc32)cc1
  i, 0.74, ., -4, ., -0.8, 102
> O=C(NC1CCCCCC1)c1cc(=O)[nH]c2ccc(S(=O)(=O)N3CCOCC3)cc12
  i, 1, ., 0, ., ., 99
> O=C(COC(=O)c1ccccc1C(=O)c1ccccc1)Nc1cccc([N+](=O)[O-])c1
  i, 0.87, 128, 2, 23, -2.1, 63
> Cc1ccc(Cl)cc1NC(=O)CSC(N)=O
  i, 0.83, 174, 0, 28, 0.5, 89
> O=C(Nc1ccc(OC(=O)c2ccncc2)cc1)c1ccncc1
  i, 0.89, 107, 8, -9, -2.6, 89
> CCOC(=O)c1cc2c(=O)n3ccccc3nc2n(CCCOC)c1=NC(=O)c1cccnc1
  ., ., 108, -8, -8, 2.8, 99
> CCc1nnc(NC(=O)CSc2nnnn2C)s1
  i, 0.86, 120, -8, -52, -3.6, 96
> CCn1c(C(C)NC(C)=O)nc2ccccc21 (stereo unspecified)
  i, 0.83, ., -5, ., -2.3, 75
> Cn1c(CSc2nc3ccccc3s2)nnc1SCC(=O)NCc1cccnc1
  i, 0.82, 95, -7, -19, -2.2, 68
> COc1ccc(Cn2nnnc2CN2CCCCCC2)cc1
  i, 0.95, 127, -2, -21, ., 98
> FC(F)(F)c1ccc(CN2C[C@@H]3C(c4ccccc4)C4(c5ccccc5)CC3(C4)[C@H]2c2ccccc2)cc1 (stereo partly specified)
  i, 0.86, ., ., ., ., 98
> O=C(O)CC1SC(=Nc2ccc(O)cc2)NC1=O (stereo unspecified)
  i, 0.92, 126, -6, 17, ., 101
> Fc1ccc(-c2cc(-c3cccs3)cc(-c3ccccc3)n2)cc1
  i, 0.85, ., ., ., ., 117
> Cc1cccc(NC(=O)CN(C)S(=O)(=O)c2cccc3cccnc23)c1
  i, 0.98, ., -12, ., -2.1, 101
> O=C(/C=C/c1ccc(Cl)c([N+](=O)[O-])c1)Nc1ccc(NC(=O)c2ccco2)cc1
  i, 0.88, 134, 4, 31, -0.9, 98
> Cc1ccc(C)c(NC(=O)COC(=O)c2ccc3c(c2)OCO3)c1
  i, 0.87, ., -5, ., ., 96
> COc1ccc(-n2ncc3c(=O)n(CC(=O)N4c5ccccc5CC4C)cnc32)cc1 (stereo unspecified)
  i, 0.85, 103, -10, -114, -3.3, 101
> CCN1C(=O)c2cccc3c(S(=O)(=O)N(C(=O)c4ccncc4)c4ccc(OC)cc4)ccc1c23
  i, 0.91, 116, 3, 3, -0.2, 96

In the list so far, six contain an aryl thioether with sulfur outside any ring.
Every second line gives: HSV replic up, HSV replic up primary fold, Insulin prom inh cell count, PKD1 inh, Insulin prom inh, GALR2 agonist, RGS16-Gao
> Clc1ccc(-c2nnc(CSc3nnc(-c4cccs4)n3Cc3ccccc3)o2)cc1
  i, 0.85, 92, -14, -143, -1.3, 91
> Cc1ccc(-n2c(Cc3cccn3C)nnc2SCC(=O)NC2CCCCC2)cc1
  i, 0.9, ., 1, ., -1.4, 60
> O=C(CSc1nnc(CNC(=O)c2cccs2)o1)NC1CCCCC1
  i, 0.98, 86, -6, 10, 0.0, 98
> COc1ccc(-n2c(SCC(=O)Nc3ccc([N+](=O)[O-])cc3OC)nc3ccccc32)cc1
  i, 0.74, ., -4, ., -0.8, 102
> CCc1nnc(NC(=O)CSc2nnnn2C)s1
  i, 0.86, 120, -8, -52, -3.6, 96
> Cn1c(CSc2nc3ccccc3s2)nnc1SCC(=O)NCc1cccnc1
  i, 0.82, 95, -7, -19, -2.2, 68

(further entries)
Every second line gives: HSV replic up, HSV replic up primary fold, Insulin prom inh cell count, PKD1 inh, Insulin prom inh, GALR2 agonist, RGS16-Gao
> Cc1ccc(NC(=S)N(CCCN2CCOCC2)Cc2cccnc2)cc1C
  i, 0.99, ., 2, ., ., 101
> O=C(Nc1nc(-c2cccs2)cs1)C1=COCCO1
  i, 0.98, ., -12, ., -1.6, 101
> N#Cc1ccsc1NC(=O)c1cccc([N+](=O)[O-])c1
  i, 1, ., -2, ., ., 99
> Cc1ccc(-n2c(O)cnc2Nc2nc(C)cc(C)n2)cc1
  ., ., ., -4, ., 0.1, 108
> O=C(O)/C=C/c1ccc2ccccc2n1
  i, 0.81, 122, -5, 12, -0.2, 102
> O=c1cc(CSc2nnc(COc3ccc(Cl)cc3)o2)c2ccccc2[nH]1
  i, 0.88, 91, 3, 10, -2.8, 106
> CCn1c(CCc2nc3ccccc3[nH]2)n[nH]c1=S
  i, 0.98, 112, -9, 11, ., 102
> O=C(O)Cc1csc(NC(=O)CSc2cccc(C(=O)O)n2)n1
  i, 0.96, ., ., ., ., 103
> CCOCC(=O)Nc1cc(-c2cn3cccnc3n2)ccc1C
  i, 1.2, 130, -8, 55, -0.4, 100
> Cc1cc(C(=O)CSc2n[nH]c(N)n2)c(C)n1-c1ccc(F)cc1
  i, 0.92, 32, 3, -469, -0.9, 40
> COCCSc1ccccc1C(=O)Nc1ccncc1
  i, 1, 76, -12, -190, -1.4, 101
> Cc1cc2c(c(=O)n1CCc1ccccc1)C(C(C)C)C(C#N)=C(N)O2 (stereo unspecified)
  i, 0.8, ., 6, ., -0.8, 103
> Cc1cccc(-c2nnc3n2N=C(c2ccccc2)CS3)c1
  i, 0.79, ., 12, ., 0.9, 56
> CC(=O)Nc1ccc(NC2=C(Cl)C(=O)c3ccccc3C2=O)cc1
  i, 0.57, 59, -8, 43, ., 109
> COc1ccc(S(=O)(=O)N2CCc3ccccc32)cc1C(=O)NCCc1ccccn1
  i, 0.94, 89, 2, 43, ., 101
> COc1ccc(C(=O)NN2C(=O)C3CCC(C)(C2=O)C3(C)C)cc1 (stereo unspecified)
  i, 0.97, 140, -7, -28, -2.0, 100
